Lassa entry inh = qHTS for Inhibitors of binding or entry into cells for Lassa Virus. Lassa virus pseudotype entry inhibition, cell reporter; control for the full effect not named in the record. Potency, µM (highest dose often 37.9 µM), for inactives: at the highest dose activity change, negative = inhibition, actives largely listed as inhibitors. 300,000 compounds, 1.2% hits. AID 540256, 2011; active means well fitted inhibition curve with a large enough effect; inconclusive means small, poorly fitted or top-dose-only effect, or effect the other way; inactive means flat fitted curve, though single readings scatter; tested in HEK293 cells; further: on the % scale 0 is the no-effect control and ±100 the full control effect; nearly all actives have a fitted effect of over 50% in size; luciferase read-out
Cruzain inh Det = qHTS Assay for Promiscuous and Specific Inhibitors of Cruzain (with detergent) | Cruzipain (Trypanosoma cruzi), P25779 | purified cruzain, Z-FR-AMC fluorescence, 0.01% Triton | Potency, µM, for the others: max response, negative = inhibition, most hits filed as inhibitors | 200,000 compounds, 0.43% hits | AID 1478, 2009;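 further: plate controls were neutral wells for no effect and buffer without enzyme for full effect; nearly all actives have a fitted effect of over 40% in size; top concentration of the series not given in the record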
Target sequence (P25779 123-467 limits assumed): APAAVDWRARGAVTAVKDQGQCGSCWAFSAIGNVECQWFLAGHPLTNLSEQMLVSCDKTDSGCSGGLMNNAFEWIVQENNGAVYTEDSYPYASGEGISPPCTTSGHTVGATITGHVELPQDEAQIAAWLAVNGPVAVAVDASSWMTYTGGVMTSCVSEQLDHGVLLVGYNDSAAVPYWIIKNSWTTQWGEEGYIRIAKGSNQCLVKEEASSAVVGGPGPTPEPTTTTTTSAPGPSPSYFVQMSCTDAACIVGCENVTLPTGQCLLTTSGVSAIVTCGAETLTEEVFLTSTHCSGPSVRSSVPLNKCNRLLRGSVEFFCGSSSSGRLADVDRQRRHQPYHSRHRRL
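Purified cruzain (1.5 nM final) was preincubated with compounds for 15 min at room temperature in 100 mM sodium acetate pH 5.5, 5 mM DTT, 0.01% Triton X-100. Reaction started with 2 uM Z-FR-AMC; AMC fluorescence change over 60 s gave activity.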
SARS PLP yeast = qHTS of Yeast-based Assay for SARS-CoV PLP | S. cerevisiae expressing SARS-CoV PLpro, growth rescue; control for the full effect not named in the record | Potency, µM (top dose mostly 32.9 µM), inactives show at the top dose activity, positive = growth rescue | 330,000 compounds, 0.19% hits; active means well fitted rising curve with a large enough effect; inconclusive means small, poorly fitted or top-dose-only effect; inactive means no such curve, though single readings can be large or run the other way; further: 0% is about no effect; nearly all actives have a fitted effect of over 55% in size; growth read by luminescence after 48 h
2A StopGo = High Throughput Screening for Foot and Mouth Disease Virus Antivirals; human cells with a luciferase reporter of 2A StopGo recoding; control for the full effect not named in the record; Potency, µM (series often up to 57.9 µM), inactives show top-dose signal change, negative = less light; 410,000 compounds, 1.2% hits; AID 1159524, 2015; active = well fitted falling curve with a large enough effect; inconclusive = small, poorly fitted or top-dose-only effect; inactive = no such curve, though single readings can be large or run the other way; tested in HEK293T cells; further: on the % scale 0 is the no-effect control and ±100 the full control effect; nearly all actives have a fitted effect of over 45% in size; luciferase light after 4 h
NS1 inh = qHTS Assay for Inhibitors of Influenza NS1 Protein Function. S. cerevisiae slowed by influenza A NS1, growth recovery by OD600. Potency, µM (top dose mostly 46.1 µM), for the others: at the highest dose activity, positive = more growth. 270,000 compounds, 0.4% hits; active means well fitted rising curve with a large enough effect; inconclusive means small, poorly fitted or top-dose-only effect; inactive means no such curve, though single readings can be large or run the other way; further: nearly all actives have a fitted effect of over 50% in size
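Recovery from NS1-induced slow growth read by OD600 in budding yeast switched to galactose assay medium (pH 6.0, -URA) at 1:100 dilution. Compound 23 nl per well; the matching strain lacking NS1 serves as control.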
Cruzain inh noDet = qHTS Assay for Promiscuous and Specific Inhibitors of Cruzain (without detergent); 200,000 compounds, 2.3% hits; Cruzipain (Trypanosoma cruzi), P25779; Potency, µM, inactives show max response, negative = inhibition, most hits filed as inhibitors; purified cruzain, Z-FR-AMC fluorescence, no detergent;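 further: plate controls were enzyme without inhibitor for no effect and buffer without enzyme for full effect; nearly all actives have a fitted effect of over 40% in size; top concentration of the series not given in the record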
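Detergent-free condition (0.00005% Triton X-100) in acetate buffer pH 5.5 with DTT. 1.5 nM enzyme and compound were pre-mixed 15 min, then 2 uM Z-FR-AMC substrate added; reaction progress from fluorescence change between first and third reads (60 s).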
RE007 growth inh = qHTS Assay for Inhibitors of the HIV-1 protein Vpr; Potency, µM (series often up to 92.2 µM), for the others: at the top dose activity change, negative = less growth; AID 651644, 2012; S. pombe RE007 Vpr strain, BacTiter-Glo ATP luminescence, 24 h; control for the full effect not named in the record; 360,000 compounds, 0.21% hits; active = well fitted falling curve with a large enough effect; inconclusive = small, poorly fitted or top-dose-only effect; inactive = no such curve, though single readings can be large or run the other way;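 further: on the % scale 0 is the no-effect control and ±100 the full control effect; nearly all actives have a fitted effect of over 50% in size; the assay follows cell death caused by Vpr and the record does not say whether a fall means rescue or toxicity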
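Fission yeast RE007 carrying one integrated HIV-1 vpr copy, seeded at OD 0.01 in PMG+AL medium with 23 nL pinned compound. Grown 24 h at 30 degrees; viability read by BacTiter-Glo luminescence after 5 min.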
Marburg entry inh = qHTS for inhibitors of binding or entry into cells for Marburg Virus. Marburg virus pseudotyped entry inhibition, cell reporter; control for the full effect not named in the record; about a third of the inactives were read at about 46 µM. Potency, µM (titrated, usually from 37.8 µM), without a hit: at the highest dose activity change, negative = inhibition, usual class: inhibitors. 300,000 compounds, 1.8% hits; active = well fitted inhibition curve with a large enough effect; inconclusive = small, poorly fitted or top-dose-only effect, or effect the other way; inactive = flat fitted curve, though single readings scatter; tested in HEK293 cells; about a fifth of its hits are not listed in these tables; further: on the % scale 0 is the no-effect control and ±100 the full control effect; luciferase read-out
* = called active by the depositor; ? = inconclusive; · = not tested or not shown; & = joins results of further samples; [ ] = another dose, or the depositor's remark. Unless noted, the call rests on the fitted dose curve; in most records, active means well fitted curve in the direction sought with a large enough effect; inconclusive means small, poorly fitted or top-dose-only effect, or another doubt; inactive means no such curve, though single readings can be large; an effect the other way counts as inactive or inconclusive. Potency means the concentration at half of the fitted maximal effect. Rows were taken by chance (roughly 4.6% active in at least one column).

smiles | SARS PLP yeast | Cruzain inh noDet | Lassa entry inh | 2A StopGo | NS1 inh | RE007 growth inh | Marburg entry inh | Cruzain inh Det
CN(Cc1ccccc1)C(=O)C1CCN(Cc2cc3ccccc3n2Cc2ccccc2)CC1 | · | 7% | -24%[46.1 µM] | ? | · | · | · | -2.8%
CC(=O)Nc1ccc(NC(=O)CSc2nnc(-c3ccccc3)n2Cc2ccc3c(c2)OCO3)cc1 | -3% | 20% | -8% | · | -7% | -5% | -17% | 5.1%
COc1ccc(C(=O)NCCn2cc(SCC(=O)N3CCOCC3)c3ccccc32)cc1 | -3% | 4% | ? | -16% | 5% | 1% | 10% | 2.8%
O=C1CCC([N+](=O)[O-])C(c2ccc(Br)cc2)N1 (stereo not drawn) | 4% | 2% | 4% | -27% | 19% | 1% | ? | -1.1%
CCOC(=O)c1c(NC(=O)Cn2nc(C(F)(F)F)cc2C)sc(C)c1C | ? | -1% | -5% | -2% | 11% | 3% | ? | 2.1%
O=[N+]([O-])c1ccccc1Oc1cnc2ccccc2n1 | 0% | · | ? | 6% | · | 0% | -14%[46.1 µM] | ·
Cc1ccccc1CN1CCC(N2CCC(C(=O)NCC3CCCO3)CC2)CC1 (stereo not drawn) | 29% | · | · | -17% | 0% | -4% | · | ·
CC1(C)CC(=O)c2cnc(N)nc2C1 | -2% | -2% | 5% | 19% | -6% | -19% | -1% | 2.5%
OC(COc1ccc(F)cc1)CN1CCN(c2ccccc2F)CC1 (stereo not drawn) | 1% | · | · | -20% | 1% | 3% | · | ·
Cc1cccc(OCCCC(=O)Nc2ccc(S(=O)(=O)N3CCCC3)cc2)c1 | -11% | -14% | -17% | ? | -2% | 8% | -24% | -2.6%
Clc1ccc(Nc2ccccc2)nn1 | -1% | · | 4%[46.1 µM] | 11% | -4% | 3% | 1%[46.1 µM] | ·
CN(C(=O)COC(=O)c1ccc(C(C)(C)C)cc1)C1CCS(=O)(=O)C1 (stereo not drawn) | 1% | · | -11% | -8% | · | -5% | 4% | ·
Nc1cc(-c2ccccc2)n2c(n1)nc1ccccc12 | -7% | · | 2% | -17% | 0% | -10% | ? | ·
N#C/C(=C\N1CCOCC1)C(N)=O | 1% | · | ? | -11% | 3% | 2% | ? | ·
FC(F)(F)c1cccc(N2CCN(Cc3cccnc3)CC2)c1 | 6% | 1% | 3% | 11% | 2% | 10% | 16% | 1.2%
COc1ccc(C(CC(=O)O)NC(=O)C2CCCCC2)cc1 (stereo not drawn) | 0% | -6% | 2% | 0% | 15% | -17% | ? | 3.5%
CCOC(=O)C1CN(S(=O)(=O)c2ccccc2)C1 | 7% | -8% | 12% | 0% | 6% | -21% | 6% | 5.2%
N#Cc1nc(COc2ccccc2)oc1N1CCCCCC1 | -9% | -7% | · | 15% | -66% | 16% | · | -0.5%
CC(=O)c1cc(Cl)ccc1OC(=O)c1ccco1 | 2% | -2% | -1% | · | -2%[9.22 µM] | -23% | -17% | 1.4%
Cc1ccsc1/C=C1\SC(N2CC(C)OC(C)C2)=NC1=O (stereo not drawn) | 0% | -15% | 2% | 3% | 5% | 4% | 7% | -17%
Cn1cc(Cl)c(C(=O)NC(=S)Nc2sc3c(c2C#N)CCCCC3)n1 | 9% | ? | 13% | -12% | 15% | 11% | ? | -8.8%
Cc1ccccc1Nc1nn2c(=O)c3ccc(C(=O)NCC(C)c4ccccc4)cc3nc2s1 (stereo not drawn) | · | ? | ? | 0% | · | · | · | -5.6%
Oc1ccc(Br)cc1CNc1nccs1 | -4% | · | · | 15% | -6% | 2% | · | ·
CCC(=O)Oc1oc(-c2ccccc2)nc1C=Nc1ccc(C)cc1 | 1% | · | -22% | -11% | 1% | 3% | 3%[46.1 µM] | ·
Cc1c(Cl)cccc1NC(=O)Nc1ccc(C(N)=O)cc1 | 0% | · | -11% | 5% | · | 7% | -16%[46.1 µM] | ·

Carrying on.
smiles | SARS PLP yeast | Cruzain inh noDet | Lassa entry inh | 2A StopGo | NS1 inh | RE007 growth inh | Marburg entry inh | Cruzain inh Det
Cc1nn(CC(=O)N2CCN(C)CC2)c(=O)c2ccccc12 | 0% | · | 1% | -10% | -3% | 6% | 21% | ·
CCOC(=O)c1cnn(-c2cccc(F)c2)c1C1CCNCC1 | · | -3% | 9%[46.1 µM] | 2% | · | · | -1%[46.1 µM] | 2.4%
CN(Cc1cccs1)C(=O)CN1C(=O)c2ccccc2S1(=O)=O | -1% | · | 14% | 42%[activator] | · | 3% | ? | ·
Cc1ccc(-c2n[nH]c(=O)c3ccccc23)cc1S(N)(=O)=O | -2% | · | 18% | -2% | 1% | -6% | -13% | ·
Cc1cc(C)cc(N(CC(=O)NC2CCCC2)C(=O)c2csnn2)c1 | 0% | · | -9%[46.1 µM] | -1% | -1% | 9% | ? | ·
CC1Cc2ccccc2N1C(=O)CSc1ncccn1 (stereo not drawn) | 2% | · | 16% | -5% | · | 6% | 8%[46.1 µM] | ·
CC(C)(C)C(=O)Nc1ccc(C(=O)OC2CCCCC2)cc1 | -11% | -3% | ? | · | -10% | -23% | ? | 2.5%
O=C1CC(=O)NC(SCC(=O)Nc2ccccc2[N+](=O)[O-])=N1 | 0% | · | 1% | 15% | 16% | 14% | 21%[46.1 µM] | ·
O=C(NCCCN1CCOCC1)c1cc(Cl)ccc1OCc1ccccc1 | 5% | · | 7% | -11% | 5% | 3% | ? | ·
C/C(=N\NC1=NCCN1)c1ccc(N)c([N+](=O)[O-])c1 | 3% | · | ? | 10% | 1% | 0% | ? | ·
C=CCNC(=O)CSc1cc([N+](=O)[O-])cc(S(=O)(=O)Cc2ccccc2)c1 | ? | -22% | 1% | -18% | 10% | · | ? | -7.3%
O=C(C(Sc1ccccc1)c1ccccc1)N1CCOCC1 (stereo not drawn) | 0% | 7% | 7% | -12% | 8% | -5% | -2% | 3.3%
Cc1cc(NC(=O)c2cccc(S(=O)(=O)N3CCCC3)c2)no1 | -1% | -4% | -11%[14.3 µM] | 12% | -9% | 16% | -1% | 2.8%
CCOc1cc2c(C#N)c(N3CCNCC3)nc(N)c2c(N)n1 | 2% | -2% | 6% | -1% | ? | -17% | 12%[46.1 µM] | -16%
O=C(O)CCN1C(=O)c2ccc(NC(=O)c3ccco3)cc2C1=O | 1% | · | · | -9% | -1% | 1% | · | ·
Cc1cc(-c2cccs2)nc(-n2cccc2)n1 | 4% | -5% | 1% | 41%[activator] | -17% | -23% | 29% | -0.4%
CC(=O)C1=C(C)NC(=O)NC1c1cc(Br)ccc1OCC#N (stereo not drawn) | 19% | 1% | 4% | 8% | -3% | 7% | -5%[46.1 µM] | -3.6%
CCOCCN(C(=O)COC)c1cccc(OC)c1 | -1% | 3% | -9% | 11% | -1% | -2% | -4%&-4% | 2.8%
CN(C(=O)c1ccc(OC2CCN(CCc3ccccc3)CC2)cc1)C1CCOC1 (stereo not drawn) | -1% | · | -7%[46.1 µM] | 2% | 5% | 2% | ? | ·
CCOC(=O)C1CN(S(=O)(=O)c2cc(OC)ccc2OC)C1 | 0% | · | · | 3% | -4% | -5% | · | ·
COc1ccc(S(=O)(=O)N2CC(C)N(C(=O)N3CCOCC3)C2)cc1 (stereo not drawn) | 1% | · | 0% | 0% | 2% | 15% | 0%[46.1 µM] | ·
OC(CNCc1ccco1)COc1ccccc1 (stereo not drawn) | 1% | -2% | -1% | 4% | 2% | -10% | · | 4.7%
CN(C(=O)CC1C(=O)NCCN1Cc1ccoc1)C1CCOCC1 (stereo not drawn) | 1% | · | 4% | -13% | 7% | -6% | 13%[46.1 µM] | ·
CC(=O)Nc1ccccc1NC(=O)C/C(C)=N/NC(=O)C1CCCCC1 | -3% | · | 4% | 7% | -3% | 10% | 1%[46.1 µM] | ·
CC1CCCC(C)N1C(=O)COC(=O)CNC(=O)c1ccccc1 (stereo not drawn) | -7% | · | 13% | -2% | · | 1% | 8% | ·

Next part.
smiles | SARS PLP yeast | Cruzain inh noDet | Lassa entry inh | 2A StopGo | NS1 inh | RE007 growth inh | Marburg entry inh | Cruzain inh Det
CCCNC(=O)c1ccc2c(c1)ncn2-c1cc(C)cc(C)c1 | -4% | · | -17% | -19% | · | 13% | ? | ·
CC(C)CC(=O)Nc1ccnn1C1CCN(C(=O)c2ccc(Cl)cc2F)CC1 | 1% | · | · | -9% | 3% | -7% | · | ·
CCOC(=O)c1c(C)[nH]c(C(=O)OCc2ccc([N+](=O)[O-])cc2)c1C | -1% | · | -9%[46.1 µM] | -3% | -6% | 10% | ? | ·
O=C(Cc1ccc(Br)cc1)N1CCN(c2ccccc2O)CC1 | -5% | 4% | 14% | -3% | -20% | -11% | -13%[46.1 µM] | -2.0%
CC(C)(C)C(=O)Nc1ccnc(-c2cccnc2)n1 | 0% | -8% | · | · | 6% | · | 0% | 8.6%
Cc1cccc(N(C)C(=O)CCS(=O)(=O)c2cccc3nonc23)c1 | -1% | -2% | 10% | -6% | 0% | 11% | 4% | 0.3%
C1CSC2(N1)C1CC3CC2CC(C1)C31NCCS1 (stereo not drawn) | -2% | 0% | 16% | -17% | 8% | -12% | 12% | 1.6%
COc1ccc(NC(=O)N2CCCC2C(=O)NC2CCCC2)cc1 (stereo not drawn) | -1% | · | -7% | 14% | 6% | 7% | 4%[46.1 µM] | ·
O=C(Cn1nc2n(c1=O)-c1ccccc1SC2)N/N=C/c1cccnc1 | 1% | · | · | -15% | 3% | 0% | · | ·
COc1cc(C(=O)N/N=C/c2cc([N+](=O)[O-])cs2)cc(OC)c1OC | 7% | -7% | ? | -14% | -11% | 29% | -24% | -6.6%
